# Assay outcomes from PubChem.
# BJeLR lethal = BJeLR cell viability loss. BJeLR (HRASV12) viability, CellTiter-Glo ATP luminescence, 48 h; reference of the scale not given here. inhibition, % (test concentration not listed). 0.17% of 300,000 active;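 active means replicate mean above 50%; inconclusive means above 50% but judged a plate artefact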;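 further: 50 nL library stock added to about 25 µL; numbers are from one replicate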
# PrP 5UTR inh = inhibition of PrP 5' UTR reporter expression | inhibition, % (test concentration not listed) | 0.35% of 340,000 active | cell-based PrP 5' UTR mRNA reporter, plate reader;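 active means every replicate at 50% or more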;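 further: 0 = median of the neutral control wells; tested in H4 reporter cells; numbers are from one replicate; inactives centre near -14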
# Sa ugtP lethal = kills S. aureus RN4220 lacking UgtP; S. aureus RN4220 ugtP deletion, OD600 growth, 16 h; some inactives read as strong as hits; growth inhibition, % (concentration not given with the values); 0.54% of 330,000 active;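 active means z-score under -3 and OD600 up to 0.15 on both plates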;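 further: plate controls were untreated wells for no effect and antibiotic for full effect; wells of about 80 µL received 100 nL stock; the first replicate is given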
# Mtb hypoxia inh = inhibitors of hypoxia-regulated fluorescent reporter in Mycobacterium tuberculosis; M. tuberculosis hypoxia-regulated fluorescent reporter, fluorescence; fluorescence inhibition, % (concentration not given with the values); 0.1% of 300,000 active; AID 1159583;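 active means 35 to 45% if threefold the growth effect, above 45% if 1.5-fold the growth effect; inactive means the rest, general growth blockers included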;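 further: wells of about 50 µL received 100 nL stock; 0% = vehicle wells and 100% = reference inhibitor wells; whole bacteria with a GFP reporter of the hypoxia response; strong numbers were not always called active; many hits fall short of the cut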
# Autofluor counter = compound fluorescence in toxin protease inhibitor counterscreen | AID 624483 | 3.1% of 360,000 active | compound autofluorescence counterscreen, microsphere flow cytometry; stronger effect = higher value | fluorescence intensity (no concentration beside the values);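 active means at least 3 SD above the mean of all compounds, about 16000 in these data; inconclusive means too few beads counted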;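 further: 100 nL of 1 mM stock went into each well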
# Sa RN4220 lethal = S. aureus RN4220 growth inhibition; OD600, 16 h; inhibition, % (test concentration not listed); 0.33% of 330,000 active; AID 1259311;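 active means z-score of -3 or lower and OD600 up to 0.18 on both plates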;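 further: plate controls were untreated cells for no effect and reference antibiotic for full effect; stock transfer was 100 nL into about 80 µL; one replicate is shown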
# Mtb hypoxia inh growth = also measured in Mtb hypoxia inh; calls as there; growth inhibition, %; measured here: M. tuberculosis growth (absorbance);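 0% = vehicle and 100% = reference antibiotic; read after six days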
# An asterisk follows results filed as active; ? = inconclusive; . = not tested or not shown.
# Under each structure – Mtb hypoxia inh	Autofluor counter	Sa RN4220 lethal	Sa ugtP lethal	BJeLR lethal	Mtb hypoxia inh growth	PrP 5UTR inh
O=C(CN1CCCCC1)Nc1cccc(Br)c1
  11	2783	-5.9	-7	17	13	-17
CCOc1ccc(CC(=O)NN=Cc2cccnc2)cc1OCC
  12	.	4.4	8	.	7	.
COc1ccc(C)cc1NC(=O)CNC(=O)[C@@H]1Cc2ccccc2CN1
  -2	4473	3.4	6	2	-7	-2
O=C(CSc1nnc2c(n1)[nH]c1ccccc12)Nc1nncs1
  -5	6241	8.2	-9	6	-5	-3
Cc1ccccc1OCC(=O)Nc1sc2c(c1C#N)CCC2
  3	4296	4.0	-8	3	7	-33
CN(C)C(=O)Oc1ccc(OCc2n(C)c3ccccc3[n+]2C)cc1
  6	1997	2.2	12	0	2	-14
Cc1cc(C=NNC(=O)Cn2c3ccccc3c(=O)c3ccccc32)c(C)n1-c1ccccc1
  -7	.	1.7	-8	.	-3	.
CN(/N=C/c1ccco1)C1=NS(=O)(=O)c2ccccc21
  .	4014	.	.	0	.	-46
O=c1cccc2n1CC1CC2CN(c2ncnc3c2cnn3-c2ccccc2)C1 (stereo unspecified)
  16	2490	1.2	8	-4	7	-17
Cc1nc(NC(=O)C2CC2)sc1C(=O)Nc1ccccc1
  10	4194	1.1	8	-4	2	-6
ON=CCc1[nH]c2ccccc2c1-c1ccccc1
  7	.	2.3	11	.	12	.
COc1ccccc1N1CCN(C(=O)C2Cc3ccccc3CN2C(=O)c2ccco2)CC1 (stereo unspecified)
  1	2889	1.9	5	.	-10	-1
O=C(/C=C/c1ccc2c(c1)OCCO2)N1CCN(c2ccc(F)cc2)CC1
  3	3099	2.1	9	3	3	-8
CN(C)CC(O)COc1ccc(-c2ccc(C#N)cc2)cc1 (stereo unspecified)
  .	.	1.2	-3	13	.	.
CC(C)N1C(=O)CCC1C(=O)N1CCN(c2ccc(F)cc2)CC1 (stereo unspecified)
  6	5324	6.0	7	3	2	-10
CCOc1cc(C2c3c(oc4cc(C)c(Cl)cc4c3=O)C(=O)N2Cc2ccco2)ccc1O (stereo unspecified)
  5	21623*	7.1	-8	-1	7	-11
Cn1c(=O)c2cnc(-c3ccc(C(F)(F)F)cc3)nc2n(C)c1=O
  5	4327	4.0	5	0	5	-25
O=C(Nc1ccc(NC(=O)c2ccco2)nc1)c1cccnc1
  .	4447	3.4	6	5	.	-63
O=C(CCCC(=O)N1CCCc2ccccc21)N1CCCc2ccccc21
  5	9039	8.1	1	2	8	-12
CC1=C(C(=O)OCc2ccccc2)C(c2ccccc2Br)NC(=O)N1 (stereo unspecified)
  13	4128	1.3	-1	1	4	-7

# More records:
# Under each structure – Mtb hypoxia inh	Autofluor counter	Sa RN4220 lethal	Sa ugtP lethal	BJeLR lethal	Mtb hypoxia inh growth	PrP 5UTR inh
Cc1cc(Cl)ccc1OCCCC(=O)N1CCCCC1
  .	4200	12	4	-5	.	-38
CCN(C(=O)CSc1nnc(-c2ccco2)n1Cc1ccccc1)C1CCS(=O)(=O)C1 (stereo unspecified)
  24	2781	3.7	5	.	1	6
O=C1CCCC/C1=C/Nc1ccc(S(=O)(=O)Nc2ncccn2)cc1
  .	2495	.	.	4	.	-2
COc1nccc(C(F)(F)F)c1C(=O)NC(=O)Nc1c(C)cccc1C
  15	6286	3.1	1	-6	2	-16
O=c1[nH]cnc2sc3c(c12)CCCCC3
  .	3760	.	.	-4	.	3
COC(=O)CC1C(=O)NCCN1C(=S)NC(=O)C(c1ccccc1)c1ccccc1 (stereo unspecified)
  10	2059	0.4	8	-6	9	8
CCN1CCc2nc(NC(=O)c3ccccc3)sc2C1
  9	18645*	0.5	4	-12	3	-19
CCOc1ccc(C(CC(=O)O)NC(=O)c2ccco2)cc1OC (stereo unspecified)
  6	3276	-5.9	-1	0	-32	-27
COc1ccc(/C=C/C(=O)NC(=S)NNC(=O)c2cc(OC)c(OC)c(OC)c2)cc1
  2	3522	26	-8	-11	4	-5
CCOC(=O)c1c(C)n(Cc2ccccc2)c2ccc(OCC(O)Cn3nc(C)nc3C)cc12 (stereo unspecified)
  6	3799	3.0	5	-15	1	-9
O=C(CSc1nnc(CNc2ccc(Cl)cc2)o1)Nc1nc2c(s1)CCCC2
  -9	10097	1.1	-17	-5	2	-8
CCOC(=O)c1csc(NNC=O)n1
  -1	2087	4.3	2	2	10	-38
C/C=C(/C)C(=O)O[C@@H]1[C@H](OC(C)=O)c2c(ccc3ccc(=O)oc23)OC1(C)C
  .	2782	.	.	-10	.	-22
CN(C)C1=NCCN1CC1CCCCCC1
  -1	4113	-2.4	0	.	1	1
Cc1cc(C)c(OCC(=O)Nc2ccccc2N2CCOCC2)c(C)c1
  -3	8137	3.8	-13	-1	-3	-1
CN(C)c1ccc(C=NNC(=O)c2ccnn2C)cc1
  10	.	-0.6	0	.	3	.
CN(CCNC(=O)CN1C(=O)CSc2ccc(S(=O)(=O)N3CCCC3)cc21)Cc1ccccc1
  9	4463	3.6	3	-6	0	-25
Cc1ccc(C)c(NC(CC(=O)c2ccccc2)C(=O)OCC(=O)c2cccs2)c1 (stereo unspecified)
  -3	10575	-2.3	2	-4	14	-23
CCc1noc(C)c1C(=O)OCC(=O)Nc1cccc(C)c1
  11	3382	0.8	2	.	3	-27
O=C(CCCCCN1C(=O)CCC1=O)Nc1ccc2c(c1)OCO2
  .	2864	-9.1	0	7	.	28

# (listing goes on)
# Under each structure – Mtb hypoxia inh	Autofluor counter	Sa RN4220 lethal	Sa ugtP lethal	BJeLR lethal	Mtb hypoxia inh growth	PrP 5UTR inh
CCc1sc(C(=O)N2CCN(c3ccc(F)cc3)CC2)cc1C
  1	5577	1.9	7	-8	8	-1
Cc1ccc(NNS(=O)(=O)c2ccc(C)cc2)cc1
  7	3146	-0.6	10	-1	-3	-26
O=C(CSc1nc2ccccc2o1)NN=Cc1ccco1
  10	.	-2.1	-1	.	7	.
O=C(OCc1cc2ccccc2[nH]c1=O)c1ccccc1
  8	2852	9.9	-8	2	4	-42
O=c1[nH]c(SCCN2CCOCC2)nc(O)c1-c1ccccc1
  -7	4413	4.6	7	-2	6	-13
Cc1ccc(N=C2NC(=O)/C(=C/c3cn(C)c4ccccc34)S2)cc1C
  11	3992	-14	1	.	6	-14
COc1ccccc1N(CC(=O)Nc1c(C)cccc1C)S(C)(=O)=O
  3	12473	3.9	4	3	0	-25
CCOC(=O)C1(Cc2ccccc2)CCN(Cc2cccn2-c2nccs2)CC1
  -11	2079	4.6	13	-10	-6	-12
Cc1cc(C)c(C#N)c(OCC(=O)Nc2ccccc2)n1
  18	3734	4.3	3	4	8	-7
CN(C)CCn1c2ccccc2c2nc3ccc([N+](=O)[O-])cc3cc21
  -1	3314	0.4	5	1	-9	.
CC(/C=C/C1=C(C)CCCC1(C)C)=NNC(=O)c1ccncc1
  .	.	0.4	4	.	.	.
Cc1sc2ncnc(NC3CCN(Cc4ccccc4)CC3)c2c1C
  0	3988	3.3	1	3	-1	-8
CNC(=S)N/N=C/c1ccc2c(c1)OCCO2
  .	2039	.	.	-6	.	-2
COc1ccc(/C=C/C(=O)Nc2ccc(OC)cc2[N+](=O)[O-])cc1
  10	1978	6.8	10	-11	0	-20
O=C(O)c1cc(Br)ccc1NN=C1CCCCC1
  6	1984	3.5	3	3	-3	-35
CC(=O)C1=C(O)C(=O)N(Cc2ccccc2)C1c1ccc(F)cc1 (stereo unspecified)
  -2	3539	0.4	-3	1	10	-5
CC(C)C1Oc2ccccc2N(CC(=O)NCCCN2C(C)CCCC2C)C1=O (stereo unspecified)
  4	23299*	1.5	0	-8	6	-18
COc1ccc(N2CCN(C(=O)Nc3ccccc3C)CC2)cc1
  11	2478	0.9	2	-5	12	-32
CC(C)(C)c1ccc(CN2C3=NCCCN3c3ccccc32)cc1
  19	3516	-0.3	-22	10	26	-6
COC(=O)C1=C(C(=O)OC)N2C=CC=CC2(C)C(C(=O)OC)=C1C(=O)OC (stereo unspecified)
  7	8597	2.0	5	0	-3	-21

# Following part:
# Under each structure – Mtb hypoxia inh	Autofluor counter	Sa RN4220 lethal	Sa ugtP lethal	BJeLR lethal	Mtb hypoxia inh growth	PrP 5UTR inh
CCOc1ccc(C(=O)OCC(=O)NCCNC(=O)COC(=O)c2ccc(OCC)cc2)cc1
  -7	.	4.1	3	5	-7	7
CCOC(=O)c1cc2c(=O)n3ccccc3nc2n(CC(C)C)c1=NC(=O)c1ccco1
  6	3867	2.4	-12	-2	7	-20
O=C(Nc1ccc2c(c1)OCO2)c1cc(-c2cccnc2)nc2ccccc12
  6	3633	6.2	11	-12	10	-38
COc1ccnc(CSC(N)=Nc2ccccc2C(F)(F)F)c1
  5	7831	52	14	-10	2	-22
Cc1cc(C(=O)Nc2ccccc2)nn1C(C)(C)C
  22	3478	3.0	5	-2	25	-75
Cc1ccc(S(=O)(=O)N(C)C)cc1NC(=O)COC(=O)C1CCN(S(=O)(=O)c2cccs2)CC1
  6	5476	4.8	4	-2	5	-6
Cc1ccc(C(=O)c2cc([N+](=O)[O-])ccc2N2CC(C)OC(C)C2)cc1 (stereo unspecified)
  .	2389	.	.	31	.	-22
O=C(Nc1cc(Cl)ccc1O)C1CCCO1 (stereo unspecified)
  -23	3231	2.4	-8	8	-10	-20
O=C(Cn1nnc2ccccc21)c1ccc(Cl)cc1
  5	?	2.1	4	2	0	-27

# Molecules listed so far containing four or more nitrogen atoms (14):
# Under each structure – Mtb hypoxia inh	Autofluor counter	Sa RN4220 lethal	Sa ugtP lethal	BJeLR lethal	Mtb hypoxia inh growth	PrP 5UTR inh
O=C(CSc1nnc2c(n1)[nH]c1ccccc12)Nc1nncs1
  -5	6241	8.2	-9	6	-5	-3
Cc1cc(C=NNC(=O)Cn2c3ccccc3c(=O)c3ccccc32)c(C)n1-c1ccccc1
  -7	.	1.7	-8	.	-3	.
O=c1cccc2n1CC1CC2CN(c2ncnc3c2cnn3-c2ccccc2)C1 (stereo unspecified)
  16	2490	1.2	8	-4	7	-17
Cn1c(=O)c2cnc(-c3ccc(C(F)(F)F)cc3)nc2n(C)c1=O
  5	4327	4.0	5	0	5	-25
O=C(Nc1ccc(NC(=O)c2ccco2)nc1)c1cccnc1
  .	4447	3.4	6	5	.	-63
CCN(C(=O)CSc1nnc(-c2ccco2)n1Cc1ccccc1)C1CCS(=O)(=O)C1 (stereo unspecified)
  24	2781	3.7	5	.	1	6
O=C1CCCC/C1=C/Nc1ccc(S(=O)(=O)Nc2ncccn2)cc1
  .	2495	.	.	4	.	-2
CCOC(=O)c1c(C)n(Cc2ccccc2)c2ccc(OCC(O)Cn3nc(C)nc3C)cc12 (stereo unspecified)
  6	3799	3.0	5	-15	1	-9
O=C(CSc1nnc(CNc2ccc(Cl)cc2)o1)Nc1nc2c(s1)CCCC2
  -9	10097	1.1	-17	-5	2	-8
CN(C)c1ccc(C=NNC(=O)c2ccnn2C)cc1
  10	.	-0.6	0	.	3	.
CN(CCNC(=O)CN1C(=O)CSc2ccc(S(=O)(=O)N3CCCC3)cc21)Cc1ccccc1
  9	4463	3.6	3	-6	0	-25
CN(C)CCn1c2ccccc2c2nc3ccc([N+](=O)[O-])cc3cc21
  -1	3314	0.4	5	1	-9	.
Cc1sc2ncnc(NC3CCN(Cc4ccccc4)CC3)c2c1C
  0	3988	3.3	1	3	-1	-8
CCOC(=O)c1cc2c(=O)n3ccccc3nc2n(CC(C)C)c1=NC(=O)c1ccco1
  6	3867	2.4	-12	-2	7	-20
